HIV TAR-Tat: HIV-1 TAR-Tat binding disruption; HIV-1 TAR RNA, Tat peptide displacement FRET; stronger effect = higher value; z-score (concentration not given with the values); 0.6% of 100,000 active; AID 1259389;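 also: score is relative to mean and SD of negative controls; some compounds called inactive have numbers as strong as hits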
CDC25B-CDK2 inh: human CDC25B-CDK2/CyclinA binding inhibition; P30305+P24941; AID 1259370; z-score (test concentration not listed); HTRF CDC25B-CDK2/CyclinA binding, anti-His/anti-Flag; stronger effect = higher value; 0.72% of 94,000 active;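 also: score is relative to mean and SD of negative controls; strong numbers were not always called active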
Active calls of the source: *; / = not tested or not shown.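 The calls were made as follows: active = z-score from 3 up in half or more of its runs; inactive = the rest.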

SMILES	HIV TAR-Tat	CDC25B-CDK2 inh
Clc1ccccc1-c1nnc(C(NCc2ccc3c(c2)OCO3)c2ccccc2)o1 (configuration not stated)	-1.53	/
Nc1nc(N2CCCC2)nc(N2CCOCC2)c1[N+](=O)[O-]	0.93	/
O=C1CCSc2ccc(S(=O)(=O)N3CC(=O)Nc4ccccc43)cc2N1	1.45	/
C1=C(CCNc2nn3nnnc3c3ccccc23)CCCC1	0.57	/
Cn1c(N2CCC(C(=O)N3CCC(N4CCCCC4)CC3)CC2)cc(=O)n(C)c1=O	1	/
CCS(=O)(=O)c1ncc(Cl)c(C(=O)Oc2cc(C)cc(C)c2)n1	0.09	-0.31
O=C(Nc1ccc(S(=O)(=O)N2CCCCC2)cc1)c1ccc(F)cc1	/	-2.47
O=C(COc1ccc2c(=O)c(Oc3ccccc3Cl)coc2c1)OC1CCCCC1	/	-1.76
CCc1nonc1NC(=O)c1oc2ccc(Cl)cc2c1C	0.7	-1.4
Fc1ccc(C(OCCCc2cnc[nH]2)c2ccc(F)cc2)cc1	/	-0.43
O=S1(=O)C[C@H](N2CCN(c3cccc(Cl)c3)CC2)[C@@H](S(=O)(=O)c2cccs2)C1	1.34	-1.33
CC(C)NC(=O)c1ccccc1-c1ccccc1C(=O)NC(C)C	/	-0.42
CC(C)(C)c1ccc(Oc2ccc(NC(=O)c3ccco3)cn2)cc1	/	2.32
c1ccc(OCCn2c(COc3ccccc3)nc3ccccc32)cc1	/	-0.49
O=S(=O)(c1ccc(-c2ccno2)s1)N1CCc2ccccc2C1	-1.11	/
CN(Cc1ccco1)C(=O)Cn1c(=O)oc2cc(S(=O)(=O)N3CCCC3)ccc21	/	-1.9
O=C(Cn1cnc(S(=O)(=O)N2CCCC2)c1)N(Cc1cccs1)C1CCCC1	0.7	/
O=c1oc2c3c(ccc2c2ccccc12)OCN(Cc1ccco1)C3	1.64	0.13
Cc1cc2c(cc1Nc1nc3ccccc3c3nncn13)n(C)c(=O)n2C	1.48	/
Cc1ccc(C2=NN(C(=O)C3CC3)C(O)(C(F)(F)F)C2)cc1 (configuration not stated)	/	-0.91
CC1=C(c2ccc(C)c(C)c2)S(=O)(=O)N=C1Nc1ccc(Cc2ccncc2)cc1	-0.13	-0.85
Cc1ccc(-c2cn3nc(C)sc3n2)cc1	0.42	2.92
O=C(NCC(c1ccc[nH]1)C(F)(F)F)Nc1ccccc1 (configuration not stated)	/	-0.19
CCOC(=N)c1cccc(C(F)(F)F)c1	/	-0.45
CCc1ccc(C2c3c(oc4ccc(C)cc4c3=O)C(=O)N2c2nccs2)cc1 (configuration not stated)	0.68	0.61
O=S1(=O)C[C@H](N2CCOCC2)[C@@H](S(=O)(=O)c2ccc(Cl)cc2)C1	0.58	-2.11
CCc1nc2sc3c(NCCO)ncnc3c2c2c1CCCC2	/	-1.6
COc1ccc(OCC(O)Cn2c(NCc3ccco3)nc3c2c(=O)[nH]c(=O)n3C)cc1 (configuration not stated)	/	-0.19
Cc1cc(=O)n2nc(N3CCCC(C(=O)N4CCN(c5ccccn5)CC4)C3)sc2n1 (configuration not stated)	-1.05	-1.69
Cc1nn(-c2ccccc2)c2c1N(CC(=O)O)C(=O)CS2	0.81	0.61
CC(C)Sc1c(Cl)cccc1NC(=O)c1ccc(Cl)cc1	/	0.35
CC(C)(C)c1ccc(S(=O)(=O)N2CCC(Oc3ccc(-n4cnnn4)cc3)CC2)cc1	0.23	-0.45
CCCCSc1nnc(NC(=O)c2nc(SC)ncc2Cl)s1	2.72	-1.63
CSc1ccc(CCN=C2NS(=O)(=O)C(c3ccccc3)=C2C)cc1	-0.02	-1.8
C/C(=N\O)C(C)(C)Nc1ccc2c(c1)OCO2	/	-0.03
COCCCn1c(-c2ccc(C(C)(C)C)cc2)n[nH]c1=S	/	-0.91
CCn1c(CC2C(=O)Nc3ccccc32)nc2ccccc2c1=O (configuration not stated)	-0.08	-1.54
CCCCN(C1=NC2CS(=O)(=O)CC2S1)c1ccc(C(=O)OCC)cc1 (configuration not stated)	14.2	-2.6
COc1ccccc1-c1noc(Cn2c(=O)[nH]c3cc4c(cc3c2=O)OCO4)n1	-0.73	/
Cc1cc(NCC2CCCO2)n2nc(C(F)(F)F)c(-c3ccc(Cl)cc3)c2n1 (configuration not stated)	0.84	2.29
Cc1cc2c3c([nH]c2cc1S(=O)(=O)NC(C)Cc1ccco1)CCCC3=O (configuration not stated)	1.34	/
CN(CC1COc2ccccc2O1)S(=O)(=O)c1csc(C(N)=O)c1 (configuration not stated)	0.35	/
CCCN1CCN(CCCNC(=O)Cn2nc(C)n3c(cc4sccc43)c2=O)CC1	/	-1.97
O=C(NCc1ccc(F)cc1)NCC1CCN(C2CCCC2)C1 (configuration not stated)	0.45	-1.97
N#CC1=C(N)OC2=C(C(=O)CC(c3ccccc3)C2)C1c1cccnc1 (configuration not stated)	/	1.57
Cc1c(C(=O)O)sc2ncnc(Nc3ccc(F)c(Cl)c3)c12	20.2*	/
Cc1nc(-c2ccc(S(=O)(=O)N3CCCCC3)cc2)co1	-0.45	/
O=C(NC1CCCc2ccccc21)c1ccc2c(c1)nc1n2CCOC1 (configuration not stated)	-0.77	/
O=C(Cn1c(=O)c2cccn2c2ccc(F)cc21)N1CCN(C(=O)c2ccco2)CC1	2.87	/
Cc1cc(NS(=O)(=O)c2ccc3c(c2)NC(=O)C(C)C(=O)N3)ccc1Br (configuration not stated)	/	-1.22
O=C(NCCc1ccco1)c1cn(-c2ccc(F)cc2)nn1	0.55	-1.48
Cc1ccc(Cl)cc1NCc1c(CO)cnc(C)c1O	-0.24	/
C=CCOC(=O)C1=C(C)NC2=C(C(=O)CCC2)C1c1cccc(Br)c1 (configuration not stated)	1.05	-1.55
CN1CCN(CCCN2C(=O)c3ccc(-c4ccco4)n3CC2(C)C(=O)NC2CCCC2)CC1 (configuration not stated)	1.63	/
O=C(Nc1ccc(Br)cc1F)N1CC=C(c2c[nH]c3ccccc23)CC1	-7.03	/
COCCNC(=O)C1CCCN(c2nnc(-n3c(C)ccc3C)s2)C1 (configuration not stated)	1.27	-3.13
CCOC(=O)CSc1nc2ncccc2c(=O)n1CC1CCCO1 (configuration not stated)	-0.69	-0.32
O=C(O)CCC(=O)c1ccc2c(c1)OCCCO2	/	-0.99
CCN(CC)CCNC(=O)c1c(O)c2cccc3c2n(c1=O)CC3	0.67	/
Cn1c(CCc2cccc(NS(=O)(=O)c3ccc(F)c(F)c3)c2)nc2ccccc21	1.18	/

(next part)
SMILES	HIV TAR-Tat	CDC25B-CDK2 inh
CN(C)/C=C(\C(=S)c1ccccc1)c1ccccc1	/	-2.09
CC(C)Cc1nn2c(=O)cc(CSCC(=O)Nc3ccccc3)nc2s1	-1.3	/
CC1=C(c2ccc(C)c(C)c2)S(=O)(=O)N=C1N1CCC(C(=O)N2CCC(C)CC2)CC1	1.27	/
O=C(CSc1nnc(-c2ccco2)o1)N1CCCCC1	1.69	0.61
CCOC(=O)c1c(C)oc2nc(C)nc(N3CCN(c4ccc(F)cc4)CC3)c12	1.28	/
Cn1c(C(=O)N2CCCC(C(=O)O)C2)cc2sccc21 (configuration not stated)	0.73	1.74
CCCCNC(=O)C1CCN(c2nnc(-n3cccc3)s2)CC1	0.03	/
Cc1nn(C)cc1CN(C)C(=O)c1cc2nc(-c3ccccc3)cc(C(F)(F)F)n2n1	/	-0.54
CCNC(=O)c1c(C)oc2ncnc(N3CCCCC3)c12	0.59	/
O=S(=O)(NCCc1csc(-c2ccc(F)cc2)n1)c1ccc(F)cc1	-0.17	/
Cc1nn(-c2ccc3nnc(C)n3n2)c2c1C(c1cccc(O)c1)CC(=O)N2 (configuration not stated)	1.77	/
Cc1ccc(C)c(S(=O)(=O)N(CCC(C)C)CCS(=O)(=O)N2CCNCC2)c1	1.25	/
O=C(NCCc1cccs1)C1CCC(Cn2c(=O)[nH]c3ccsc3c2=O)CC1 (configuration not stated)	1.06	-1.56
O=C(Nc1ccccc1N1CCOCC1)c1cc2ccccc2o1	1.07	-9.6
Cc1cc(C)cc(N(CC(=O)O)S(=O)(=O)c2c(C)n[nH]c2C)c1	/	-1.29
CCOC(=O)c1c(C)oc2nc(C)nc(NC3CCCCC3)c12	-0.75	/
Cn1c(=O)sc2cc(NS(=O)(=O)c3ccc(C4CCCCC4)cc3)ccc21	0.51	/
CCC1CN(C(=O)Nc2cc(F)ccc2F)c2cc(Cl)ccc2O1 (configuration not stated)	-0.41	/
Cc1cc(C)n2ncc(C(=O)Nc3ccc(Cl)c(F)c3)c2n1	-0.07	/
O=C(CN1C(=O)c2ccccc2C1=O)Nc1ccc(Cl)cn1	/	-1.73
CN1C(=O)c2cccc3cccc(c23)[S+]1c1ccccc1C(=O)O (configuration not stated)	/	-3.68
Cc1ccc(NC(=O)Nc2c[nH]c(=O)[nH]c2=O)cc1Cl	1.28	/
Cc1ccc(CNS(=O)(=O)c2c(C)[nH]c(C)c2C(=O)N2CCCCC2)o1	1.87	/
O=C(Cn1cnc(S(=O)(=O)N2CCCC2)c1)Nc1ccc(F)c(Cl)c1	0.07	/
COc1cccc(Cc2nnc(-c3c(-c4ccccc4)noc3C)o2)c1	/	0.78
CN(C(=O)CN1CCN(c2ccc([N+](=O)[O-])cn2)CC1)c1ccccc1	/	-3.19
CC1=C(C(=O)OCCOc2ccccc2)C(c2cccc(O)c2)C2=C(CC(c3ccccc3)CC2=O)N1 (configuration not stated)	0.65	-0.97
C=CCNc1nc(Nc2ccc(C)c(C)c2)c2cnn(C)c2n1	0.85	/
Cc1nnc2sc(/C=C/c3ccccc3)nn12	0.13	-0.1
O=C(OCc1cc(=O)n2nc(C3CCCCC3)sc2n1)c1ccccc1F	-0.35	/
c1ccc2c(c1)nc(Nc1ccc(N3CCCCC3)cc1)c1nncn12	0.53	-0.48
CCCC1c2ccc(C)n2CCN1C(=O)NC1(CC(=O)OCC)CCCCC1 (configuration not stated)	-9.29	-0.76
FC(F)(F)c1cc(-c2nnc(N3CCOCC3)o2)cc(C(F)(F)F)c1	/	-2.92
N#Cc1c(-c2ccccc2)nc(SCc2ccc(Cl)cc2)[nH]c1=O	0.54	1.67
COC(=O)c1cc(S(=O)(=O)N2CCCC2)cn1C	2.05	-2.3
Cc1c(C(=O)N2CCOCC2)oc2c1-c1nn(CC(=O)NCCC(C)C)cc1CC2	3.3	/
COC(=O)c1ccc(C2C(C(=O)OCc3ccccc3)=C(C)NC3=C2C(=O)CCC3)cc1 (configuration not stated)	1.37	-1.56
CC(=O)Nc1ccc(F)cc1NC=C(C#N)C#N	/	-2.11
COc1cc2c(cc1OC)-c1cc3ccc(OC)c(OC)c3c[n+]1CC2	8.72	/
Nc1c(-c2nc(-c3ccncc3)no2)nnn1-c1ccccc1F	-5.14	/
CCOC(=O)c1sc(NC(=O)c2cc(CC)on2)c(C(=O)OCC)c1C	-0.67	-1.51
Cc1ccc(-n2ncc3c(=O)n(-c4ccc5c(c4)OCCO5)c(-c4ccco4)nc32)cc1C	0.6	/
CC(=O)N1c2ccc(S(=O)(=O)NC(C(=O)NCc3ccc4c(c3)OCO4)C(C)C)cc2CC1C (configuration not stated)	-1.21	/
Cc1cc(NC(=O)CN2C(=O)C(C)(C)c3cc(S(=O)(=O)N4CCCC(C)C4)ccc32)no1 (configuration not stated)	0.09	/
CCC1CN(S(=O)(=O)c2cc(-c3cc(C)no3)ccc2OC)c2cc(Cl)ccc2O1 (configuration not stated)	1.31	/
Cc1cc2c3c([nH]c2cc1S(=O)(=O)Nc1ccccn1)CC(C)(C)CC3=O	0.55	/
NC(=O)C1CCN(C(=O)CN2C(=O)c3cccnc3Oc3ccc(Cl)cc32)CC1	-0.49	/
Cc1cc(=O)n2nc(-c3cccs3)nc2n1CC(=O)N1CCOCC1	-0.92	-1.02
C=CCOC(=O)C1=C(C)NC2=C(C(=O)CC(C)(C)C2)C1c1ccccc1OC (configuration not stated)	1.73	-2.37
O=C(NCCN1CCc2ccccc2C1)Nc1ccc(F)cc1F	0.67	1.75
CNC(=O)CCCN1C(=O)c2cccnc2Oc2ccc(Cl)cc21	1.58	/
CCOc1c(N2CCN(c3ccc(OC)cc3)CC2)c(=O)c1=O	0.27	/
CCN1CCN(CCCNC(=O)C2CCN(c3ncnc4onc(C)c34)CC2)CC1	0.29	/

Among those listed so far, 13 have an NH in an aromatic ring.
SMILES	HIV TAR-Tat	CDC25B-CDK2 inh
Fc1ccc(C(OCCCc2cnc[nH]2)c2ccc(F)cc2)cc1	/	-0.43
O=C(NCC(c1ccc[nH]1)C(F)(F)F)Nc1ccccc1 (configuration not stated)	/	-0.19
COc1ccc(OCC(O)Cn2c(NCc3ccco3)nc3c2c(=O)[nH]c(=O)n3C)cc1 (configuration not stated)	/	-0.19
COCCCn1c(-c2ccc(C(C)(C)C)cc2)n[nH]c1=S	/	-0.91
COc1ccccc1-c1noc(Cn2c(=O)[nH]c3cc4c(cc3c2=O)OCO4)n1	-0.73	/
Cc1cc2c3c([nH]c2cc1S(=O)(=O)NC(C)Cc1ccco1)CCCC3=O (configuration not stated)	1.34	/
O=C(Nc1ccc(Br)cc1F)N1CC=C(c2c[nH]c3ccccc23)CC1	-7.03	/
O=C(NCCc1cccs1)C1CCC(Cn2c(=O)[nH]c3ccsc3c2=O)CC1 (configuration not stated)	1.06	-1.56
Cc1cc(C)cc(N(CC(=O)O)S(=O)(=O)c2c(C)n[nH]c2C)c1	/	-1.29
Cc1ccc(NC(=O)Nc2c[nH]c(=O)[nH]c2=O)cc1Cl	1.28	/
Cc1ccc(CNS(=O)(=O)c2c(C)[nH]c(C)c2C(=O)N2CCCCC2)o1	1.87	/
N#Cc1c(-c2ccccc2)nc(SCc2ccc(Cl)cc2)[nH]c1=O	0.54	1.67
Cc1cc2c3c([nH]c2cc1S(=O)(=O)Nc1ccccn1)CC(C)(C)CC3=O	0.55	/
